Screens as filed in PubChem BioAssay.
RVFV N-RNA FP – RVFV nucleocapsid-RNA interaction inhibition; P21700; % bound, % (test concentration not listed); RVFV N-RNA binding, fluorescence polarization; stronger effect = lower value; actives 0.1% (n = 20,000);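 active means between 0 and 58% in either replicate with normal brightness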;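 further: 100 nL library stock added to about 12 µL; 100% = protein and probe without compound and 0% = probe alone; numbers are from one replicate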
Target sequence (P21700 whole entry, looked up): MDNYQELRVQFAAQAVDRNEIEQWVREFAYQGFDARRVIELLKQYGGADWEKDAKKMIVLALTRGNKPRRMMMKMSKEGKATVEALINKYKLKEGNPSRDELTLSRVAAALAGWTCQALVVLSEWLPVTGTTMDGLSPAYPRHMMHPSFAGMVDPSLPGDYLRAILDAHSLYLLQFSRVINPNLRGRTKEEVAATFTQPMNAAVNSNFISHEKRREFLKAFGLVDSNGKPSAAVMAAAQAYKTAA
Active calls of the source: *; & = joins results of further samples. Not all compounds are listed; count on the stated rates, not on these rows.

A first look (2 entries):
`C=CCOc1ccccc1C1NC(=O)NC(C)=C1C(=O)NCc1ccccc1` (configuration not stated) gave RVFV N-RNA FP 87.
For S=c1[nH]nc(-c2ccccc2)n1C1C=CCCC1 (configuration not stated) the results were RVFV N-RNA FP 96.

The list itself, from the start:
`C=CCOc1ccccc1C1NC(=O)NC(C)=C1C(=O)NCc1ccccc1` (configuration not stated) gave RVFV N-RNA FP 87.
For S=c1[nH]nc(-c2ccccc2)n1C1C=CCCC1 (configuration not stated) the results were RVFV N-RNA FP 96.
For COC(=O)C(=CC(C)C)C(=O)OC the results were RVFV N-RNA FP 89.
COc1ccc(/C=N/OC(C)=O)c(OC)c1 was read as RVFV N-RNA FP 92.
For O=C(N/C(=C/c1ccc(Br)cc1)C(=O)N1CCCC1=O)c1ccco1 the results were RVFV N-RNA FP 96.
For C=CCNC(N)=S the results were RVFV N-RNA FP 110.
Screening Oc1c(Cl)cc(Cl)c2cccnc12 returned RVFV N-RNA FP 96.
For COC(=O)Oc1ccc2c(C)cc(=O)oc2c1 the results were RVFV N-RNA FP 95.
COc1ccc(C(=O)CSc2nnc(Cc3cc(=O)[nH]c(=O)[nH]3)n2-c2cccc(OC)c2)cc1 was read as RVFV N-RNA FP 99.
Screening CC1CCN(S(=O)(=O)c2cccc(C(=O)NC(C)C)c2)CC1 returned RVFV N-RNA FP 94.
S=c1cc(-c2ccccc2)n(Cc2ccco2)c2c1CCCC2 was read as RVFV N-RNA FP 99.
`CC(=O)Nc1ccc2c(c1)C(=O)N(C1CCCCC1)C2=O` gave RVFV N-RNA FP 97.
C#CCSc1nc2ccccc2n1C(=O)c1ccc(S(=O)(=O)N2CCOCC2)cc1 was read as RVFV N-RNA FP 88.
For COC(=O)C1=C(c2ccccc2)Nc2ncnn2C1c1ccccc1F (configuration not stated) the results were RVFV N-RNA FP 103.
CCOc1ccccc1N1Cc2ccccc2C1 was read as RVFV N-RNA FP 108.
For Cc1ccc(C)c(OCC(=O)Nc2ccc(-c3nnc(-c4ccco4)o3)cc2)c1 the results were RVFV N-RNA FP 95.
`O=C1CCc2cc(S(=O)(=O)NC3CCCCCC3)cc3c2N1CCC3` gave RVFV N-RNA FP 88.
For N#C/C(=C/c1cn(CC(N)=O)c2ccccc12)c1ccc(F)cc1 the results were RVFV N-RNA FP 101.
For Fc1ccc2nc(Nc3nc4ccccc4s3)sc2c1 the results were RVFV N-RNA FP 90.
`Cc1ccc(C2C(C#N)=C(SCC(=O)N3c4ccccc4CC3C)NC3=C2C(=O)CCC3)o1` (configuration not stated) gave RVFV N-RNA FP 100.
For CC(=O)N(CC(=O)O)c1ccccc1 the results were RVFV N-RNA FP 102.
Screening CCOC(=O)CSc1nc2c(c(C3CC=CCC3)c1C#N)CCC2 (configuration not stated) returned RVFV N-RNA FP 100.
For CCOC(=O)C(C)Sc1nc(-c2ccc(OC)cc2)c(C#N)c(=O)[nH]1 (configuration not stated) the results were RVFV N-RNA FP 97.
Screening O=C(Cc1ccccc1)Nc1cccc(Cl)c1 returned RVFV N-RNA FP 111.
Screening O=C(c1cccc(S(=O)(=O)Nc2ccccn2)c1)N1CCCc2ccccc21 returned RVFV N-RNA FP 97.
CSc1ccccc1N=Cc1c(O)[nH]c2ccccc12 was read as RVFV N-RNA FP 104.
Screening Nc1cc(=O)[nH]c(SCC(=O)N2CCCCC2)n1 returned RVFV N-RNA FP 96.
O=C(c1ccco1)N1C(=O)c2cccc3c(S(=O)(=O)N4CCCC4)ccc1c23 was read as RVFV N-RNA FP 93.
For O=C(NCc1nc(-c2ccc(C(F)(F)F)cc2)no1)c1ccccc1C(F)(F)F the results were RVFV N-RNA FP 94.
Screening CCSc1nnc2[nH]c(=O)c(C)c(C)n12 returned RVFV N-RNA FP 95.
`COC(=O)C1=C(C)N(Cc2ccccc2)C(=O)NC1c1ccccc1` (configuration not stated) gave RVFV N-RNA FP 95.
For COc1ccc(CN2C(=O)C(O)(CC(=O)c3ccc4c(c3)OCO4)c3ccccc32)cc1OC (configuration not stated) the results were RVFV N-RNA FP 95.
`CCOC(=O)N1CCN(C(=O)c2ccc(NS(=O)(=O)c3ccccc3)cc2)CC1` gave RVFV N-RNA FP 100.
COC(=O)c1cccc(NC(=O)Cc2cccs2)c1C was read as RVFV N-RNA FP 101.
For COc1ccc(/C=C2\SC(=O)N(C)C2=O)c2ccccc12 the results were RVFV N-RNA FP 79.
Screening O=c1cnnc(NC2CCCCC2)[nH]1 returned RVFV N-RNA FP 93.
`CC1(C)CC(=O)C(C=NC23CC4CC(CC(C4)C2)C3)=C(O)C1` gave RVFV N-RNA FP 89.
`CCCn1nnnc1NC(=S)NC(=O)c1cc2ccccc2o1` gave RVFV N-RNA FP 97.
CCOc1ccc(NC(=O)CC(C)O)cc1 (configuration not stated) was read as RVFV N-RNA FP 97.
Screening CCc1c(O)n(C2CCCCC2)c(=S)[nH]c1=O returned RVFV N-RNA FP 95.
CC1=C(C(=O)OC(C)C)C(c2sccc2C)NC(=O)N1 (configuration not stated) was read as RVFV N-RNA FP 104.
Cc1cc(C)cc(OCC(=O)NCc2ccc3c(c2)OCO3)c1 was read as RVFV N-RNA FP 96.
`CC(C)(C)NCC(O)c1ccccc1Cl` (configuration not stated) gave RVFV N-RNA FP 98&93.
Screening CCN(Cc1ccccc1)C(=O)CCN1C(=O)/C(=C\c2ccco2)SC1=S returned RVFV N-RNA FP 98.
O=C(c1ccccc1)C1CCN(C(=O)c2ccc(Cl)cc2)CC1 was read as RVFV N-RNA FP 97.
For CCC(Oc1ccccc1)C(=O)N1CCC(C(N)=O)CC1 (configuration not stated) the results were RVFV N-RNA FP 91.
`Cc1cc(O)c2c(c1)C(=O)c1cc(O)cc(O)c1C2=O` gave RVFV N-RNA FP 94.
Screening C/C(=N\OCc1ccc(C(=O)N2CCCCC2)o1)c1cccc(C(F)(F)F)c1 returned RVFV N-RNA FP 96.
`CCOC(=O)c1c(C)oc2c1c(CN1CC(C)OC(C)C1)c(O)c1ccccc12` (configuration not stated) gave RVFV N-RNA FP 97.
CCOC(=O)c1cnc(Cc2ccccc2)[nH]c1=O was read as RVFV N-RNA FP 104.
`CN(C)C(=O)CSc1nc(SCC(=O)N(C)C)n(-c2ccccc2)n1` gave RVFV N-RNA FP 101.
`CCNc1nc(NCC)n2c(SCC(=O)Nc3ccc(CC)cc3)nnc2n1` gave RVFV N-RNA FP 89.
`Cc1cc(Oc2ccccc2)nc(Oc2ccc(OCC(N)=O)nn2)n1` gave RVFV N-RNA FP 93.
`O=C(NCc1ccccc1)Nc1ccc(Cl)cc1` gave RVFV N-RNA FP 105.
Screening O=C(NCC1CCCO1)c1cc2ccccc2o1 (configuration not stated) returned RVFV N-RNA FP 96.
Screening CN1[C@@H]2CC[C@H]1CC(OC(=O)c1c[nH]c3ccccc13)C2 (some centres not stated) returned RVFV N-RNA FP 95&101.
`Cc1ccc2nc(C3CCCCC3)cc(C(=O)O)c2c1` gave RVFV N-RNA FP 103.
`COC(=O)c1ccc(CSc2ncccn2)o1` gave RVFV N-RNA FP 94.
O=C(Nc1cccc(-c2nnc(-c3ccccc3)o2)c1)C1CC1 was read as RVFV N-RNA FP 92.
Screening Cc1cc2c(cc1Cl)N(C(=O)Nc1ccc(Oc3cccnc3C)nc1)CC2 returned RVFV N-RNA FP 87.

A draw from above in order of SMILES length, low to high:
For C=CCNC(N)=S the results were RVFV N-RNA FP 110.
For COC(=O)C(=CC(C)C)C(=O)OC the results were RVFV N-RNA FP 89.
CCOc1ccc(NC(=O)CC(C)O)cc1 (configuration not stated) was read as RVFV N-RNA FP 97.
`COC(=O)c1ccc(CSc2ncccn2)o1` gave RVFV N-RNA FP 94.
COc1ccc(/C=N/OC(C)=O)c(OC)c1 was read as RVFV N-RNA FP 92.
For COC(=O)Oc1ccc2c(C)cc(=O)oc2c1 the results were RVFV N-RNA FP 95.
For Fc1ccc2nc(Nc3nc4ccccc4s3)sc2c1 the results were RVFV N-RNA FP 90.
CSc1ccccc1N=Cc1c(O)[nH]c2ccccc12 was read as RVFV N-RNA FP 104.
Screening Nc1cc(=O)[nH]c(SCC(=O)N2CCCCC2)n1 returned RVFV N-RNA FP 96.
For COc1ccc(/C=C2\SC(=O)N(C)C2=O)c2ccccc12 the results were RVFV N-RNA FP 79.
For COC(=O)C1=C(c2ccccc2)Nc2ncnn2C1c1ccccc1F (configuration not stated) the results were RVFV N-RNA FP 103.
`Cc1cc(Oc2ccccc2)nc(Oc2ccc(OCC(N)=O)nn2)n1` gave RVFV N-RNA FP 93.
`COC(=O)C1=C(C)N(Cc2ccccc2)C(=O)NC1c1ccccc1` (configuration not stated) gave RVFV N-RNA FP 95.
For N#C/C(=C/c1cn(CC(N)=O)c2ccccc12)c1ccc(F)cc1 the results were RVFV N-RNA FP 101.
`CC1(C)CC(=O)C(C=NC23CC4CC(CC(C4)C2)C3)=C(O)C1` gave RVFV N-RNA FP 89.
For O=C(N/C(=C/c1ccc(Br)cc1)C(=O)N1CCCC1=O)c1ccco1 the results were RVFV N-RNA FP 96.
`CCOC(=O)c1c(C)oc2c1c(CN1CC(C)OC(C)C1)c(O)c1ccccc12` (configuration not stated) gave RVFV N-RNA FP 97.
O=C(c1ccco1)N1C(=O)c2cccc3c(S(=O)(=O)N4CCCC4)ccc1c23 was read as RVFV N-RNA FP 93.

New compounds follow:
Screening CSc1nc(C)cc(OCCNC(=O)Nc2ccccc2)n1 returned RVFV N-RNA FP 94.
Screening CCOC(=O)c1c(NC(=O)CSc2ncn(-c3ccccc3)n2)sc2c1CCCC2 returned RVFV N-RNA FP 103.
Screening CC1CCN(CC(=O)C(C#N)c2ccccc2)CC1 (configuration not stated) returned RVFV N-RNA FP 100.
`C=CCN1C(=O)/C(=C\c2ccc(N(CC)CC)cc2)C(=O)NC1=S` gave RVFV N-RNA FP 110.
O=C1N/C(=N/N=C/c2cccs2)SC1Cc1ccccc1 (configuration not stated) was read as RVFV N-RNA FP 99.
`C=CCOc1c(CNc2ccc(C(=O)O)cc2)cccc1OCC` gave RVFV N-RNA FP 92.
For CCSc1nnc(NC(=O)C(C)Sc2ccccc2)s1 (configuration not stated) the results were RVFV N-RNA FP 93.
`C=CCC1CC(=O)N(c2ccc(Cl)cc2)C1=O` (configuration not stated) gave RVFV N-RNA FP 91.
Screening O=C(CCSc1nnc(-c2ccccc2)o1)Nc1ccc(F)cc1 returned RVFV N-RNA FP 97.
O=S(=O)(NNc1ccc(F)cc1F)c1ccc(Cl)cc1 was read as RVFV N-RNA FP 94.
Nc1nonc1C(=O)NN=c1c(=O)c2ccccc2c1=O was read as RVFV N-RNA FP 94.
COc1ccc(-c2cc(=O)oc3cc(O)c(Cl)cc23)cc1 was read as RVFV N-RNA FP 86.
Screening CC(c1ccccc1)n1cnc2cc(N)ccc21 (configuration not stated) returned RVFV N-RNA FP 101.
`Oc1cc(Cl)c(Cl)cc1O` gave RVFV N-RNA FP 87.
Screening Cc1ccccc1NC(=O)Cc1nnc(SCC(=O)c2ccccc2)n1C returned RVFV N-RNA FP 91.
Screening Cn1nc(C(F)(F)F)c(-c2ccc(Br)cc2)c1NC(=O)c1ccco1 returned RVFV N-RNA FP 93.
Screening CCOc1ccc2c(c1)sc(=NC(=O)CN1C(=O)CCC1=O)n2C returned RVFV N-RNA FP 93.
For CCN(CC)c1ccc(CN2CCc3ccccc3C2)cc1 the results were RVFV N-RNA FP 101.
O=C(CSCCOc1ccccc1)N1CCCC1 was read as RVFV N-RNA FP 96.
Screening CCc1ccc(C(=O)Nc2ccc(N(CC)CC)cc2C)cc1 returned RVFV N-RNA FP 87.
Screening Cc1nc(C)c(C(=O)NCCC(c2ccccc2)c2ccccc2)o1 returned RVFV N-RNA FP 100.
For O=c1onc2n1-c1cc(Br)ccc1OC2 the results were RVFV N-RNA FP 91.
`CCCn1nnc(NC(=S)NC(=O)c2cccs2)n1` gave RVFV N-RNA FP 90.
C=CCn1c(CNC(=O)c2ccco2)nnc1SCc1nc2ccccc2c(=O)[nH]1 was read as RVFV N-RNA FP 91.
`CC(C)Sc1nc2[nH]ncc2c(=O)[nH]1` gave RVFV N-RNA FP 100.
`Cc1ccc(-c2nn3c(C)nnc3c3ccccc23)cc1S(=O)(=O)N1CCCC1` gave RVFV N-RNA FP 93.
For CC1=CC(C)=NC2=C(c3ccccc3)S/C(=C3/C(=O)N(C)C(=S)N3C)N12 the results were RVFV N-RNA FP 110.
For O=C(Nc1sccc1C(=O)NC1CCCC1)c1ccc(Br)s1 the results were RVFV N-RNA FP 92.
`CCn1cc(S(=O)(=O)CC(=O)Nc2ccc(C)cc2)c2ccccc21` gave RVFV N-RNA FP 94.
`O=c1c2ccccc2nc2n1-c1ccccc1CCC2` gave RVFV N-RNA FP 96.
`CC(C)(C)C(C)(C#N)Nc1ccc(Cl)cc1` (configuration not stated) gave RVFV N-RNA FP 98.
For CCN1CCC2(CC1)Oc1ccccc1C1CC(c3ccccc3)=NN12 (configuration not stated) the results were RVFV N-RNA FP 97.
`CNC(=S)c1nc2ccccc2[nH]1` gave RVFV N-RNA FP 103.
For O=C(C1CCCO1)N(Cc1ccccc1)c1ccccc1 (configuration not stated) the results were RVFV N-RNA FP 90.
NC(=O)CS(=O)(=O)c1cn(CC(=O)N2CCOCC2)c2ccccc12 was read as RVFV N-RNA FP 95.
Screening CCSc1nc2c(c(=O)n1-c1cc(C)cc(C)c1)SCC2 returned RVFV N-RNA FP 99.
COc1ccccc1C(=O)Nc1ccccc1N1CCN(C(C)=O)CC1 was read as RVFV N-RNA FP 97.
Screening CCNC(=O)c1ccc(OC)c(OC)c1 returned RVFV N-RNA FP 102.
For O=C1NC(c2cccs2)Nc2ccccc21 (configuration not stated) the results were RVFV N-RNA FP 78.
`Cc1ccc2nc(-c3nc4ccccc4s3)sc2c1` gave RVFV N-RNA FP 93.
For O=C(CSc1nnc(CNC(=O)c2ccccc2)o1)c1ccccc1 the results were RVFV N-RNA FP 103.
Screening Cc1ccc(CSc2ncn(-c3ccccc3)n2)cc1 returned RVFV N-RNA FP 99.
O=C(ON=C1CCCC1)c1ccc(Br)cc1 was read as RVFV N-RNA FP 91.
`O=C(COc1ccccc1)Nc1cccc(-c2ccc3nncn3n2)c1` gave RVFV N-RNA FP 91.
For COc1ccc(N=Cc2ccncc2)cc1 the results were RVFV N-RNA FP 100.
Screening CNC(=S)N/N=C/c1ccc(N(C)C)cc1 returned RVFV N-RNA FP 99.
COc1ccc(-c2nnc(Nc3nc4c(F)cccc4s3)o2)c(OC)c1 was read as RVFV N-RNA FP 101.
CC(C)(O)C(/C=C/c1ccccc1)=N/NC(N)=O was read as RVFV N-RNA FP 96.
